Screening data (PubChem)
VACV E9 pol inh – vaccinia E9 polymerase processive synthesis inhibitors, primary screen, biochemical, absorbance; AID 493162, 2011; normalized absorbance, % (no concentration beside the values); in vitro processive DNA synthesis, absorbance read-out; active compounds read low; some inactives read as strong as hits; 46,000 compounds, 0.94% hits;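 active = replicate mean up to 90% and picked by the depositor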;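 also: 100% = median of the test wells of a plate; 100 nL library stock went into each well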
An asterisk follows results filed as active; & = joins results of further samples.

For COc1cccc([C@H]2Nc3ccc(S(=O)(=O)Nc4ccc(C)c(C)c4)cc3[C@H]3C=CC[C@H]32)c1OC the results were VACV E9 pol inh 100.
Screening Cc1cc(=O)[nH]c(SCc2nc3ccccn3c2Br)n1 returned VACV E9 pol inh 99.
O=C(NCCCc1nc2ccccc2[nH]1)c1ccco1 was read as VACV E9 pol inh 99.
For Cc1c(O)ccc2c(=O)c(-c3ccccc3)coc12 the results were VACV E9 pol inh 100.
Screening Cc1ccc2[nH]c(=O)c(CNS(=O)(=O)c3ccccc3)c(-c3ccccc3)c2c1 returned VACV E9 pol inh 119.
COc1ccc(C2=NOC(C(=O)N3CCCCC3C)C2)cc1 (stereo unspecified) was read as VACV E9 pol inh 95.
For CC(C)OC(=O)c1cc(N)c2c(-c3ccc(F)cc3)c(-c3cccs3)sc2n1 the results were VACV E9 pol inh 101.
Screening CCCN1CCN(C(=O)c2sc3nc4n(c(=O)c3c2C)CCCC4)CC1 returned VACV E9 pol inh 96.
Screening CC(C)c1ccc2oc(-c3ccc(N)cc3)nc2c1 returned VACV E9 pol inh 102.
Screening Cc1ccc(C)c2[nH]c(=O)c(CCNC(=O)C(C)(C)Oc3ccc(Cl)cc3)cc12 returned VACV E9 pol inh 99.
`COc1ccc2c(c1)C(C)CC(C)[N+]2(C)C` (stereo unspecified) gave VACV E9 pol inh 100.
CC(C)NC(=O)Cn1c2ccccc2c2cn[nH]c(=O)c21 was read as VACV E9 pol inh 100.
For CCc1nc(C)ccc1OCC(=O)O the results were VACV E9 pol inh 99.
For O=C1CN(S(=O)(=O)c2ccccc2)c2ccccc2N1 the results were VACV E9 pol inh 99.
Oc1ccccc1OCC(O)c1ccccc1 (stereo unspecified) was read as VACV E9 pol inh 98.
CC1CC(C)CN(c2nc3ccccc3c(=O)n2-c2ccc(Cl)cc2)C1 (stereo unspecified) was read as VACV E9 pol inh 102.
O=C(Nc1ccccc1Cl)c1cn2ccccc2n1 was read as VACV E9 pol inh 100.
For COc1ccc(C2=CCCC2)cc1 the results were VACV E9 pol inh 101.
`CNC(=O)c1cc2sc(Cl)cc2n1C` gave VACV E9 pol inh 97.
`O=C(NCc1ccccc1)C1CCN(C(=O)c2ccccc2)CC1` gave VACV E9 pol inh 100.
C/C(NCc1ccncc1)=C(\C#N)C(N)=O was read as VACV E9 pol inh 112.
Cc1ccc(C(=O)O)o1 was read as VACV E9 pol inh 100.
NNc1nc(-c2ccccc2)cc(-c2ccccc2O)n1 was read as VACV E9 pol inh 100.
For O=C1CCCC/C1=C/NC1CCCCC1 the results were VACV E9 pol inh 98.
For COc1cc(SC)ccc1C(=O)Nc1nnc(C(F)(F)F)s1 the results were VACV E9 pol inh 103.
`CCC1CCCCN1C(=O)Cn1c(=O)n(C2CCCC2)c(=O)c2ccccc21` (stereo unspecified) gave VACV E9 pol inh 102.
Cc1oc2ccc(NS(=O)(=O)c3cccs3)cc2c1C(=O)OC(C)C was read as VACV E9 pol inh 100.
`COc1ccc(C(=O)c2oc3ccccc3c2NC(=O)c2ccco2)cc1` gave VACV E9 pol inh 100.
Screening O=C(CSc1nnc(-c2ccccc2)o1)N1c2ccccc2CCc2ccccc21 returned VACV E9 pol inh 100.
`CCCN(CCC)C(=O)C1=C(C)C(=O)OC12CCCCC2` gave VACV E9 pol inh 97.
CCCC(=O)Nc1ccccc1OC(F)(F)F was read as VACV E9 pol inh 91.
For CS(=O)(=O)c1sc(C(=O)O)c2c1C=CCC2 the results were VACV E9 pol inh 81.
For FC(F)(F)Oc1ccc(-n2cc3ccsc3c2)cc1 the results were VACV E9 pol inh 110.
Screening CCCCC/C=C\C/C=C\C/C=C\C/C=C\CCCC(=O)OC(CO)CO returned VACV E9 pol inh 101.
CCOC(=O)c1c(/N=C/c2c(O)n(C)c3ccccc23)sc2c1CCC2 was read as VACV E9 pol inh 100.
`ICC1COC[N+]12CCOCC2` (stereo unspecified) gave VACV E9 pol inh 101.
Screening O=C(/C=C/c1cn(-c2ccccc2)nc1-c1ccc(F)cc1)NCc1cccnc1 returned VACV E9 pol inh 101.
Screening COc1cc(C=Nc2ccc(C)cc2)ccc1OC(C)=O returned VACV E9 pol inh 97.
`Cc1ccc(NC(=O)c2ccccc2-n2cccc2)cc1` gave VACV E9 pol inh 92.
`Cc1cc(C(=O)O)c2ccccc2n1` gave VACV E9 pol inh 101.
`O=C(CN1CCOCC1)N1N=C2c3ccccc3CCC2C1c1ccc(Cl)cc1` (stereo unspecified) gave VACV E9 pol inh 92.
Screening COc1ccc2c(c1)C(O)c1ccccc1CO2 (stereo unspecified) returned VACV E9 pol inh 101.
Screening COC(=O)c1cc2ccsc2n1Cc1ccccc1 returned VACV E9 pol inh 98.
CC1CCCC(C)N1CCNC(=O)c1ccc2c(c1)ncn2C1CCCCC1 (stereo unspecified) was read as VACV E9 pol inh 92.
`CC(C)COc1ccc(C(CC(=O)O)C(=O)O)cc1` (stereo unspecified) gave VACV E9 pol inh 100.
For CCOC(=O)N1CCN(C(=O)c2ccc3c(c2)N(Cc2ccccc2)CCS3)CC1 the results were VACV E9 pol inh 110.
Screening O=C1CCC(C(=O)OCc2ccccc2)N1 (stereo unspecified) returned VACV E9 pol inh 99.
For CCn1c2c(c3cc(Br)ccc31)CCC/C2=N\O the results were VACV E9 pol inh 100.
Screening CCN(c1ccccc1)c1ncnc2c1cnn2-c1ccccc1 returned VACV E9 pol inh 100.
`CCOc1ccc(CC(=O)NCc2ccc3[nH]c(C)cc3c2)cc1` gave VACV E9 pol inh 92.
For CC(C)(C)c1ccc(C(=O)Nc2ccc(-c3nnc4n3CCCCC4)cc2)cc1 the results were VACV E9 pol inh 81.
Screening CCCn1c(N2CCCCC2)nc2c1c(=O)[nH]c(=O)n2C returned VACV E9 pol inh 102.
`CCOC(=O)c1cc2c(NCc3ccc(Cl)cc3Cl)nccc2nc1C(F)(F)F` gave VACV E9 pol inh 99.
O=C(O)c1cc(=O)[nH]c2ccccc12 was read as VACV E9 pol inh 100&104.
CC(C)c1nc2ccccc2n1Cc1ccccc1 was read as VACV E9 pol inh 94.
`Cc1ccc(S(=O)(=O)N(/C(N)=N/c2nc(C)cc(C)n2)c2ccc(C)c(C)c2)cc1` gave VACV E9 pol inh 100.
CSc1c(C#N)c(-c2ccc(Cl)cc2)nn1C(=O)c1cccs1 was read as VACV E9 pol inh 104.
O=C(NCC(c1ccccc1)c1c[nH]c2ccccc12)c1ccc(C(F)(F)F)cc1 (stereo unspecified) was read as VACV E9 pol inh 100.
`CCOC(=O)c1c(NC(=O)CCC(=O)OC)sc2c1CCC2` gave VACV E9 pol inh 92.
Screening CCN(CC)S(=O)(=O)c1ccc(/C=C/C(=O)NC2CCCCC2)cc1 returned VACV E9 pol inh 90.
CCCNC(=O)Nc1ccc2c(c1)N(CC)C(=O)c1ccccc1S2 was read as VACV E9 pol inh 110.
COc1cc(C2SC(C)C(=O)N2CCc2ccccc2)cc(OC)c1OC (stereo unspecified) was read as VACV E9 pol inh 100.
CNc1nnc(CSc2nc(C)cc(C)n2)s1 was read as VACV E9 pol inh 121.
`O=C(NC1CC1)c1cc(F)c(F)cc1Cl` gave VACV E9 pol inh 105.
For NC(=O)c1ccc(NC(=O)CSc2cccc[n+]2[O-])cc1 the results were VACV E9 pol inh 104.
`CC1CCC(NC(=O)c2ccc3snnc3c2)CC1` (stereo unspecified) gave VACV E9 pol inh 96.
For Cc1onc(-c2c(Cl)cccc2Cl)c1NC(=O)N(C)C the results were VACV E9 pol inh 101.
CC(C)COC(=O)CNc1n[nH]c(=O)[nH]c1=O was read as VACV E9 pol inh 98.
O=C(COc1ccccc1)Nc1ccc2oc(=O)ccc2c1 was read as VACV E9 pol inh 88.
Screening COc1ccccc1CNC(=O)Cc1noc2ccccc12 returned VACV E9 pol inh 101.
`CC1CCCC(C)N1C(=O)c1ccccc1` (stereo unspecified) gave VACV E9 pol inh 100.
COc1cc(SC)ccc1C(=O)N(C)c1ccccc1 was read as VACV E9 pol inh 103.
Screening C=CCn1cnc2c(oc3ccccc32)c1=O returned VACV E9 pol inh 74.
`COc1ccc(CC(=O)NCC(C)C)cc1` gave VACV E9 pol inh 102.
Screening O=C(CCOc1ccccc1)Nc1nc(-c2ccccn2)cs1 returned VACV E9 pol inh 98.
`C=CCN(c1ccccc1)S(=O)(=O)c1cccc2cccnc12` gave VACV E9 pol inh 99.
Screening CCC(=O)NC(c1ccc(C(C)C)cc1)c1c(O)ccc2ccccc12 (stereo unspecified) returned VACV E9 pol inh 104.
For Cc1ccc2cccc(S(=O)(=O)N3CCCc4ccccc43)c2n1 the results were VACV E9 pol inh 90.
`CCCNC(=O)Cn1cccc1C(=O)c1ccccc1` gave VACV E9 pol inh 105.
For OCCN(CCO)CC(O)C12CC3CC(CC(C3)C1)C2 (stereo unspecified) the results were VACV E9 pol inh 101.
Cc1ccccc1CNC(=O)c1c(C)nc2ccccn2c1=O was read as VACV E9 pol inh 100.
Screening CC12CCC(c3c1nn(-c1ccccc1)c3C(F)(F)F)C2(C)C (stereo unspecified) returned VACV E9 pol inh 104.
Screening Nc1nnc(CCCn2c(=O)oc3ccccc32)s1 returned VACV E9 pol inh 100.
`[O-][n+]1ccccc1Sc1nnc(Cc2ccccc2)c2ccccc12` gave VACV E9 pol inh 75.
CCOC(=O)C1=C(Nc2ccc(OC(C)=O)cc2)C(=O)N(C(C)(C)C)C1 was read as VACV E9 pol inh 103.
`CC(=O)NC(c1ccc(Cl)cc1)C1CCCCC1=O` (stereo unspecified) gave VACV E9 pol inh 99.
CC(C)(C)Nc1nc(=O)[nH]c(=O)[nH]1 was read as VACV E9 pol inh 100.
Screening CCN(CC)S(=O)(=O)c1cccc2c(S(=O)(=O)N(CC)CC)cccc12 returned VACV E9 pol inh 101.
Screening COC(=O)c1ccc2c(c1)N(Cc1ccccc1)C(=O)c1ccccc1S2 returned VACV E9 pol inh 91.
For O=C1NC2(CCCCC2)N(C(=O)c2ccccc2)C2=C1CCCC2 the results were VACV E9 pol inh 102.
For COc1cccc(NC(=O)CCC(=O)Nc2cccc(OC)c2)c1 the results were VACV E9 pol inh 99.
CCc1ccccc1NC(=O)c1cc(=O)c2ccccc2o1 was read as VACV E9 pol inh 99.
CC(C)Sc1nc2ccccc2[nH]1 was read as VACV E9 pol inh 97.
Screening O=C(Cc1ccccc1F)OCC(=O)c1cc2ccccc2o1 returned VACV E9 pol inh 106.
Screening O=C(CSc1nc2ccccc2s1)NCCC1=CCCCC1 returned VACV E9 pol inh 89.
c1ccc2[nH]c(CCCc3nc4ccccc4[nH]3)nc2c1 was read as VACV E9 pol inh 96.
`CN(C(=O)CSc1ncnc2ccccc12)C1CCCCC1` gave VACV E9 pol inh 107.
Screening O=C(Nc1ccc2c(c1)OCO2)c1ccc(Br)o1 returned VACV E9 pol inh 100.
`Cn1ccc(-c2ccc(Oc3cccc(Cl)c3C#N)cc2)n1` gave VACV E9 pol inh 103.
`O=C(/C=C/c1ccco1)N1CCn2c(nc3ccccc32)C1` gave VACV E9 pol inh 94.
c1ccc2[nH]c(Cc3nnc4n3CCCCC4)nc2c1 was read as VACV E9 pol inh 101.
Screening O=C(NCCc1ccccc1)c1ccc2c(c1)N(Cc1ccccc1)C(=O)CS2 returned VACV E9 pol inh 107.
Screening N#Cc1c(-c2ccccc2)cc2c(c1N)c(=O)oc1ccccc12 returned VACV E9 pol inh 98.
For CCSc1ncc(Cl)c(C(=O)NCc2ccccc2)n1 the results were VACV E9 pol inh 91.
For O=C(O)CCCN1C(=O)/C(=C/c2ccc(Cl)cc2)SC1=S the results were VACV E9 pol inh 99.
For CC1=C(C(=O)Nc2ccccc2)C(c2cccs2)C(C#N)=C(SCC(=O)O)N1 (stereo unspecified) the results were VACV E9 pol inh 92.
`CCC(C)c1ccc(NC(=O)CSc2ncn[nH]2)cc1` (stereo unspecified) gave VACV E9 pol inh 96.
CCN(CC)S(=O)(=O)c1cc(C(=O)Nc2ccccc2C)ccc1C was read as VACV E9 pol inh 100.

Molecules shown so far with an aryl methoxy group:
For COc1cccc([C@H]2Nc3ccc(S(=O)(=O)Nc4ccc(C)c(C)c4)cc3[C@H]3C=CC[C@H]32)c1OC the results were VACV E9 pol inh 100.
COc1ccc(C2=NOC(C(=O)N3CCCCC3C)C2)cc1 (stereo unspecified) was read as VACV E9 pol inh 95.
`COc1ccc2c(c1)C(C)CC(C)[N+]2(C)C` (stereo unspecified) gave VACV E9 pol inh 100.
For COc1ccc(C2=CCCC2)cc1 the results were VACV E9 pol inh 101.
For COc1cc(SC)ccc1C(=O)Nc1nnc(C(F)(F)F)s1 the results were VACV E9 pol inh 103.
`COc1ccc(C(=O)c2oc3ccccc3c2NC(=O)c2ccco2)cc1` gave VACV E9 pol inh 100.
Screening COc1cc(C=Nc2ccc(C)cc2)ccc1OC(C)=O returned VACV E9 pol inh 97.
Screening COc1ccc2c(c1)C(O)c1ccccc1CO2 (stereo unspecified) returned VACV E9 pol inh 101.
COc1cc(C2SC(C)C(=O)N2CCc2ccccc2)cc(OC)c1OC (stereo unspecified) was read as VACV E9 pol inh 100.
Screening COc1ccccc1CNC(=O)Cc1noc2ccccc12 returned VACV E9 pol inh 101.
COc1cc(SC)ccc1C(=O)N(C)c1ccccc1 was read as VACV E9 pol inh 103.
`COc1ccc(CC(=O)NCC(C)C)cc1` gave VACV E9 pol inh 102.
For COc1cccc(NC(=O)CCC(=O)Nc2cccc(OC)c2)c1 the results were VACV E9 pol inh 99.

(listing goes on)
`N[C@@H](CC1CCCCC1)C(=O)O` gave VACV E9 pol inh 99.
Screening Cc1cc(C(F)(F)F)n2ncnc2n1 returned VACV E9 pol inh 98.
CCNc1nnc(CSc2nc3ccccc3s2)s1 was read as VACV E9 pol inh 101.
For CCN1C(=O)C(C(=O)O)C(=O)c2ccccc21 (stereo unspecified) the results were VACV E9 pol inh 81.
CC(=O)NCCNc1nc2c(-c3ccc(Cl)cc3)nnn2c2ccccc12 was read as VACV E9 pol inh 101.

Ordered by molar mass (descending): part of the list above
CCN(CC)S(=O)(=O)c1cc(C(=O)Nc2ccccc2C)ccc1C was read as VACV E9 pol inh 100.
For CCN1C(=O)C(C(=O)O)C(=O)c2ccccc21 (stereo unspecified) the results were VACV E9 pol inh 81.
Screening Cc1cc(C(F)(F)F)n2ncnc2n1 returned VACV E9 pol inh 98.

Not all compounds are listed; the hit share may differ from the screen's.
